MT1-MMP act inh = blockers of MT1-MMP proenzyme processing, primary screen, HT1080 RFP-PRO-GFP cells, GFP/RFP fluorescence. Matrix metalloproteinase-14 (Homo sapiens), P50281. GFP/RFP ratio fluorescence, overnight; percent of plate control window, DMSO zero. GFP/RFP ratio change, % at 20 µM. hit rate 0.061% among 360,000. AID 651647, 2012;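 active means GFP/RFP ratio change of at least 30% with cell ATP level not reduced by more than half and red fluorescence within 50% of control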; further: strong numbers were not always called active
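Material – HT1080 RFP-PRO-GFP cells · Control set – DMSO wells and RFP-L50D-GFP cells · Incubation – overnight cell settling, then overnight compound exposure, 37 °C, 5% CO2 · Compound dosing – single-point 20 µM compound, 1% DMSO · Read-out – GFP/RFP fluorescence ratio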
Env fusion inh = inhibitors of HIV-1 Env-driven cell-cell fusion, primary screen, HeLa-JRFL effector, CEM21 target cells, luciferase. hit rate 1.1% among 360,000. inhibition, % at 12.3 µM;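 active means mean replicate inhibition score of at least 50 and every replicate individually at or above 50; inconclusive means only one of the two criteria met; inactive means mean below 50 and not all replicates reaching 50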;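 further: 0% = plate neutral controls and 100% = maraviroc near 300 nM; one replicate is shown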
Rce1 inh = yeast Rce1p protease inhibitors, primary screen, biochemical, fluorescence, cell-free homogeneous; yeast membranes, quenched prenylated peptide cleavage fluorescence; calls only; hit rate 0.27% among 290,000; AID 2563, 2010;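 active means fall in fluorescence gain of 50% or more versus controls, with final raw signal at or below 3038400; inconclusive means same 50% fall but final raw signal above 3038400; inactive means fall in fluorescence gain under 50%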;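 further: plate controls were neutral control wells for no effect and wells lacking membranes for full effect; tested at 10 µM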
UUG fidelity = modulators of yeast start codon fidelity, primary screen, whole organism, S. cerevisiae, single point, plate reader | activity score, % at 18.7 µM | AID 602363, 2012 | S. cerevisiae UUG-firefly luciferase reporter, luminescence/redox ratio | hit rate 0.13% among 350,000;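 active means replicate mean at a twofold rise or more, about +100% in these data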;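 further: firefly luciferase made from a UUG start codon reports start codon fidelity; reporter light over untreated wells divided by growth signal over untreated wells; some hits fall short of that in this replicate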
PABP polyA inh = PABP poly(A) RNA binding inhibitors, primary screen, biochemical, fluorescence polarization, uHTS; inhibition, % at 35 µM; hit rate 1% among 290,000; Polyadenylate-binding protein 1 (Homo sapiens), P11940;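 active means 50% or more with normal probe brightness, or confirmed in later tests; inconclusive means above 50% with abnormal brightness, or retests that disagree; inactive means below 50% or failed in later tests; about a fifth of its hits are not listed in these tables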;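 further: calls also rest on retests at 20 µM and on dose response follow-up; controls were probe without protein and protein plus probe with vehicle; some compounds called inactive have numbers as strong as hits; many hits fall short of the cut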
Target sequence (P11940 whole entry, looked up): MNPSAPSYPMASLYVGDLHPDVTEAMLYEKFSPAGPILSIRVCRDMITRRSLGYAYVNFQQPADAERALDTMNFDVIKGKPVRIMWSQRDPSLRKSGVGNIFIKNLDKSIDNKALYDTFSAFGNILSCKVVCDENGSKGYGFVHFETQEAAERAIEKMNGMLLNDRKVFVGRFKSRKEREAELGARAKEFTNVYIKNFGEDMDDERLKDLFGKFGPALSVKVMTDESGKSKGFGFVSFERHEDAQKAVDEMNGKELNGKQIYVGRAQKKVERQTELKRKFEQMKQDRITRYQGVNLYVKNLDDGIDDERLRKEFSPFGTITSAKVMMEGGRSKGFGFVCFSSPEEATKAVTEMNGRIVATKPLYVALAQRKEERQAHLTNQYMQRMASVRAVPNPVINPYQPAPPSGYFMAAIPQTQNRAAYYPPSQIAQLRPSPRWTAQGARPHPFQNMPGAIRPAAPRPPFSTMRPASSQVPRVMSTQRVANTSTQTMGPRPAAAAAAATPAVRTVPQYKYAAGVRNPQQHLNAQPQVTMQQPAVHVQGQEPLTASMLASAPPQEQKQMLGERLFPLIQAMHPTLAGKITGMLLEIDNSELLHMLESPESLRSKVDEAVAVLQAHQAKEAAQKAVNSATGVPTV
eIF4H FP inh = human eIF4H binding inhibitors, primary screen, translation initiation inhibitor project, biochemical, uHTS, fluorescence polarization; Eukaryotic translation initiation factor 4H (Homo sapiens), Q15056; inhibition, % at 35 µM; hit rate 0.94% among 290,000; eIF4H fluorescence polarization binding assay;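 active means 50% or more with normal probe brightness, or confirmed in later tests; inconclusive means above 50% with abnormal brightness, or retests that disagree; inactive means below 50% or failed in later tests; about a fifth of its hits are not listed in these tables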;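 further: calls also rest on retests at 20 µM and on dose response follow-up; 0% = protein and probe with vehicle and 100% = probe without protein; strong numbers were not always called active; many hits fall short of the cut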
CSC inhib = cancer stem cell viability inhibitors, primary screen, luminescence | cancer stem cell-like cells viability | inhibition, % at 7.5 µM | hit rate 1.1% among 300,000;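 active means mean at 75% or more and at least half the replicates too; inconclusive means mean and replicates disagree; tested in HMLE shEcad cells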;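 further: 0% = median of negative and 100% = median of positive control wells; the first replicate is given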
MT1-MMP act inh RFP = also measured in MT1-MMP act inh; calls as there; RFP signal change, %; measured here: RFP expression control read;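 0 = vehicle wells; hits needed this value within 50% of zero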
Active calls of the source: *; i = inactive; ? = inconclusive; . = not tested or not shown; & = joins results of further samples. Random draw from the library. Share with any hit: about 2.9%.

Results follow in this order: PABP polyA inh | MT1-MMP act inh RFP | CSC inhib | Env fusion inh | eIF4H FP inh | UUG fidelity | MT1-MMP act inh | Rce1 inh
1	CCOc1cc(C(=O)Nc2cc(C)on2)cc(OCC)c1OCC
    -5 | -1 | -20 | -1 | 6 | 1 | -2 | i
2	CN(Cc1ccccn1)C(=O)c1cc(COc2ccc(F)c(F)c2)on1
    . | 1 | . | -40 | . | -28 | 2 | .
3	CC(Oc1cccc(Cl)c1)c1ccnc2nc(/N=C/N(C)C)nn12 (centres undefined)
    -8 | 3 | 0 | -6 | 0 | -5 | 1 | i
4	COc1ccc(N2CCN(C(=O)c3ccc(-n4nc(C)cc4C)cc3)CC2)cc1
    -3 | 2 | -12 | ? | 5 | 1 | 2 | i
5	COc1cc(/C=N/O)ccc1OCc1ccc([N+](=O)[O-])cc1
    -1 | -2 | 1 | -195 | 0 | . | 6 | i
6	CSCCC(NS(=O)(=O)c1ccccc1F)C(=O)NCC(c1ccco1)N(C)C (centres undefined)
    . | 2 | -13 | 11 | . | -2 | 1 | .
7	O=C(CN(Cc1ccccc1)C(=O)CCC(=O)Nc1ccccn1)NCCc1ccccc1
    1 | 2 | 0 | 0 | -2 | -9 | 0 | i
8	CC1c2[nH]c3ccccc3c2C[C@H]2C(=O)N(CCCN(C)C)CC(=O)N12 (some centres undefined)
    12 | 0 | 0 | 0 | 7 | -16 | 3 | i
9	Cn1c(=O)[nH]c(=O)c2c1nc(NC1CCCC1)n2Cc1ccccc1
    -9 | 2 | -7 | -5 | 9 | -17 | 3 | i
10	O=C(CC1S/C(=N/N=C/c2cccs2)NC1=O)Nc1ccccc1F (centres undefined)
    -9 | 0 | -9 | -2 | -10 | . | 4 | i
11	COC(=O)NC(=S)Nc1ccc(Oc2ccc(Cl)cc2)c(Cl)c1
    6 | -4 | . | . | 2 | -8 | -1 | i
12	CCc1ccc(N(CC(=O)NCc2ccc3c(c2)OCO3)C(=O)c2csnn2)cc1
    -3 | -1 | -14 | -10 | -4 | -21 | -2 | .
13	Cc1cccc(OCC(=O)Nc2ccncc2)c1C
    4 | -31 | -3 | -17 | -4 | -17 | 6 | i
14	CC(=O)Nc1ccc(S(=O)(=O)Nc2nccc(C)n2)cc1
    3 | 1 | -4 | -12 | 0 | -16 | 1 | i
15	COc1ccc(S(=O)(=O)N2CCCCCC2)cc1C(=O)Nc1ccc(C(=O)N(C)C)cc1
    . | -5 | . | -15 | . | -25 | 1 | .
16	COc1cccc(-c2noc(CCC(=O)Nc3cccnc3)n2)c1
    0 | -5 | -8 | . | -11 | -15 | 5 | i
17	C[C@H]1CN([C@@H](C)CO)C(=O)CCCn2nncc2CO[C@@H]1CN(C)Cc1ccc(Cl)c(Cl)c1
    . | 2 | . | 34 | . | -12&4 | 0 | .
18	COC(=O)C(CCC(=O)CN1C(=O)c2ccccc2C1=O)N1C(=O)c2ccccc2C1=O (centres undefined)
    . | 1 | . | -20 | . | -10 | -1 | .
19	Cn1cc(/C=C/c2nc3ccccc3c(=O)n2-c2cccc([N+](=O)[O-])c2)c2ccccc21
    2 | 2 | 55 | 34 | -3 | . | 0 | i
20	CCN(CC)Cc1ccc(NC(=O)c2sc3cc(Cl)ccc3c2Cl)cc1
    -16 | -8 | 101* | -6 | -2 | . | -2 | i
21	CCOCCCN(C)C1CCN(C(=O)c2oc3ccccc3c2NC(=O)c2ccc([N+](=O)[O-])cc2)CC1
    4 | 2 | -12 | 10 | 0 | 2 | -2 | i
22	COc1ccc(OC)c(S(=O)(=O)N2C(C)CCCC2C)c1 (centres undefined)
    -2 | 2 | -20 | . | -5 | -15 | 2 | i
23	COc1cccc(NC(=O)CN(C)CC(=O)NCC(=O)Nc2ccc(F)cc2)c1
    . | 2 | 5 | . | . | 2 | 1 | .
24	COCCn1c(=O)sc2ccccc2c1=O
    30 | 7 | -14 | -3 | -15 | . | 1 | i
25	COc1ccc(N2CCN(C(=O)COC(=O)CNC(=O)c3ccc(C)cc3)CC2)cc1
    . | 3 | -11 | -11 | . | -4 | 1 | i
26	Cc1ccccc1NC(=S)NC(=O)c1cncc(Br)c1
    3 | 2 | -9 | 17 | 1 | -11 | -4 | i
27	COc1cccc(/C=N/NC(=O)CCn2c3ccccc3c3ccccc32)c1
    -1 | -8 | -2 | -1 | -4 | . | 3 | i
28	CCn1ncc(C(=O)Nc2cccc(Cl)c2)c1C
    -2 | 6 | 5 | . | -1 | -21 | 5 | i
29	COc1ccc2ccccc2c1CNC(=O)CC1C(=O)NCCN1CC(C)(C)C (centres undefined)
    15 | 3 | -18 | 13 | 18 | 22 | -7 | i
30	COc1ccc(NC(=S)NC(=O)/C=C/c2ccccc2)cc1
    0 | 1 | -9 | 2 | -7 | -21 | 0 | i

Compounds from the list above that contain a thiophene ring, fused or not, in the order listed:
Results follow in this order: PABP polyA inh | MT1-MMP act inh RFP | CSC inhib | Env fusion inh | eIF4H FP inh | UUG fidelity | MT1-MMP act inh | Rce1 inh
10	O=C(CC1S/C(=N/N=C/c2cccs2)NC1=O)Nc1ccccc1F (centres undefined)
    -9 | 0 | -9 | -2 | -10 | . | 4 | i
20	CCN(CC)Cc1ccc(NC(=O)c2sc3cc(Cl)ccc3c2Cl)cc1
    -16 | -8 | 101* | -6 | -2 | . | -2 | i

Further records.
Results follow in this order: PABP polyA inh | MT1-MMP act inh RFP | CSC inhib | Env fusion inh | eIF4H FP inh | UUG fidelity | MT1-MMP act inh | Rce1 inh
31	CCOC(=O)/C=C1\NC(=O)C(C)S1 (centres undefined)
    -7 | 5 | -1 | -82 | -1 | . | 3 | i
32	Cc1ccc2nc(-c3ccccc3)cc(C(=O)N3CCN(S(=O)(=O)c4c(C)noc4C)CC3)c2c1
    . | -5 | . | 10 | . | -1 | -4 | .
33	CCn1c(CNC(=O)c2cccc(C)c2)nnc1SCC(=O)N1CCOCC1
    4 | 4 | -27 | -5 | -29 | -5 | 2 | i
34	COc1cc(C)c(Cl)c(C)c1S(=O)(=O)NCc1ccc2c(c1)OCO2
    -7 | 3 | -18 | . | -8 | -17 | 4 | i
35	CN(Cc1ccccc1)CC(O)COc1ccc(CNCCc2cccnc2)cc1 (centres undefined)
    3 | -6 | 0 | 15 | -2 | . | 5 | i
36	Cc1cc(C)n(CCOc2ccc(Cl)cc2Cl)n1
    -3 | 6 | 8 | -121 | 7 | 1 | 4 | i
37	CCCCCC(=O)N1C[C@H](n2cc(C3CC3)nn2)[C@@H](O)C[C@@H]1c1ccc(C)cc1
    . | 1 | . | -16 | . | -9 | -3 | .
38	O=C(O)c1cnn2c(C(F)F)cc(C(F)F)nc12
    -18 | 4 | -16 | . | 4 | -15 | 2 | i
39	COCCN1C(=O)C(=O)/C(=C(/O)c2ccc(S(=O)(=O)N3CCOCC3)cc2)C1c1cccc(OC)c1 (centres undefined)
    12 | 2 | -6 | 0 | -4 | -10 | 0 | i
40	CCc1cc(CNC(=O)C2CCC(=O)N(CCc3cccc(F)c3)C2)on1 (centres undefined)
    -4 | 2 | . | 31 | 4 | -16 | 0 | i
41	CCc1cccc(NC(=O)CCc2nc(-c3cccs3)no2)c1
    -8 | 0 | 20 | -9 | -12 | -3 | 0 | i
42	COc1ccc(S(=O)(=O)Nc2ccncc2)c(C)c1C
    5 | 0 | -3 | 2 | 8 | -10 | 0 | i
43	CCOC(=O)N1CCN(C(=O)C2c3cc(OC)c(OC)cc3C(=O)N3CCc4ccccc4C23)CC1 (centres undefined)
    -4 | 1 | -17 | -65 | -2 | 13 | 0 | i
44	COc1ccc(CCNc2cc(N3CCN(C(=O)c4ccccc4OC)CC3)ccc2[N+](=O)[O-])cc1OC
    . | -28 | 30 | 52 | . | -5 | -5 | .
45	CCCc1cc(=O)oc2cc(OCc3ccc(C(=O)O)cc3)ccc12
    16 | 4 | 8 | -3 | 2 | -12 | 1 | i
46	Cc1ccc(S(=O)(=O)C(C#N)c2nc3ccccc3nc2N2CC(C)OC(C)C2)cc1C (centres undefined)
    90* | -7 | 40 | 44 | 85* | 3 | -8 | i
47	CN(C)C(=N)c1n[nH]nc1SCc1ccc(Cl)c(Cl)c1
    12 | 1 | -6 | -4 | -2 | -16 | 0 | i
48	Cc1cccc(/C=N/NC(=O)c2cccc(Cl)c2)n1
    7 | 2 | -1 | -26 | 19 | -21 | 4 | i
49	COc1cc(NC(=S)NC(=O)c2ccco2)ccc1NC(=O)C(C)C
    0 | 1 | . | -1 | 4 | . | 1 | i
50	O=C(NCC1CCCO1)c1cccc(S(=O)(=O)N2CCOCC2)c1 (centres undefined)
    6 | 3 | -4 | 1 | 8 | -10 | 2 | i
51	O=C(Nc1cccc(OCC(=O)N2CCOCC2)c1)c1ccc(C(F)(F)F)cc1
    -6 | 0 | -2 | -7 | 0 | -5 | 3 | i
52	Cc1[nH]n(-c2ccccc2)c(=O)c1/C=N/c1nn[nH]n1
    7 | 4 | 0 | 9 | -11 | . | -1 | i
53	COc1cccc(C2CC(c3ccccc3Cl)n3ncnc3N2)c1 (centres undefined)
    -6 | 4 | -4 | . | 4 | -18 | 2 | i
54	Cc1ccc(S(=O)(=O)N2CCOCC2)cc1NC(=O)COC(=O)COc1cccc2c1OC(C)(C)C2
    . | 5 | -15 | . | . | 17 | 5 | i
55	CN1CCN(c2nc3nonc3nc2N2CCN(C)CC2)CC1
    100* | 12 | -4 | . | 80* | -10 | 4 | i
56	COc1cccc(C(O)c2nc(-c3ccccc3)cs2)c1 (centres undefined)
    . | -7 | . | 9 | . | -5 | -3 | .
57	CN(CC(=O)Nc1ccccc1Cl)C(=O)COC(=O)c1ccc(Cl)nc1
    . | 2 | -12 | -8 | . | -18 | 4 | i
58	c1ccc(-c2noc(C3CCCCC3)n2)nc1
    2 | 0 | 9 | -59 | 9 | -8 | -5 | i
59	COc1ccc(C=C2c3ccccc3C(=O)c3ccccc32)c(OC)c1
    -8 | -5 | -10 | -25 | -6 | . | 14 | .
60	Cc1ccc(-c2nnn(CC(=O)N(c3ccc4c(c3)OCCO4)C(C(=O)NCC3CCCO3)c3ccc(F)cc3)n2)o1 (centres undefined)
    -9 | -2 | -17 | -17 | -11 | . | -6 | .
61	CCc1ccccc1N(C(=O)CNC(=O)c1ccco1)C(C(=O)NC1CCCC1)c1cccnc1 (centres undefined)
    7 | 5 | . | -3 | -6 | -6 | 1 | i
62	COc1cc(C2=NOC(C(=O)N3CCN(c4ccc(F)cc4)CC3)C2)cc(OC)c1OC (centres undefined)
    -6 | -3 | 0 | 10 | 4 | 18 | 6 | i
63	CC(=C\c1ccccc1)/C=C1/SC(=S)N(C(C(=O)O)C(C)C)C1=O (centres undefined)
    9 | 8 | . | -5 | 7 | . | 3 | i
64	CN(CCc1ccccn1)C(=O)CCC1CCCN(C(=O)CN2CCCCCC2)C1 (centres undefined)
    33 | -4 | 2 | 17 | 18 | -1 | -5 | i
65	CC1SC(c2cccc(Cl)c2)NC1=O (centres undefined)
    6 | -2 | -4 | -73 | 7 | -19 | -2 | i
66	Cc1nnc(SCC(=O)c2ccc([N+](=O)[O-])cc2)s1
    16 | 4 | 4 | 3 | -6 | . | 4 | i
